# Compound activity as filed in PubChem BioAssay.
# PrP 5UTR inh: suppresses PrP 5' UTR mRNA reporter expression. 0.35% of 340,000 active. AID 488862. cell-based PrP 5' UTR mRNA reporter, plate reader. inhibition, % (no concentration beside the values);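 active = every replicate at 50% or more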;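 note: 0 = median of the neutral control wells; tested in H4 reporter cells; numbers are from one replicate; inactives centre near -14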
# Autofluor counter: counter-screen for toxin protease inhibitors: compound fluorescence | compound autofluorescence counterscreen, microsphere flow cytometry; hits give high values | fluorescence intensity (no concentration beside the values) | 3.1% of 360,000 active;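 active = at least 3 SD above the mean of all compounds, about 16000 in these data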;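 note: 100 nL of 1 mM stock went into each well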
# BJeLR viability: kills HRASV12-expressing BJeLR cells; inhibition, % (concentration not given with the values); BJeLR (HRASV12) viability, CellTiter-Glo ATP luminescence, 48 h; reference of the scale not given here; 0.17% of 300,000 active;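 active = replicate mean above 50%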;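 note: 50 nL library stock added to about 25 µL; numbers are from one replicate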
# RN4220 kill: S. aureus RN4220 growth inhibition. OD600, 16 h. inhibition, % (no concentration beside the values). 0.33% of 330,000 active. AID 1259311;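 active = z-score of -3 or lower and OD600 up to 0.18 on both plates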;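 note: plate controls were untreated cells for no effect and reference antibiotic for full effect; stock transfer was 100 nL into about 80 µL; one replicate is shown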
# Mtb hypoxia inh: Mtb hypoxia fluorescent reporter inhibition. M. tuberculosis hypoxia-regulated fluorescent reporter, fluorescence. fluorescence inhibition, % (concentration not given with the values). 0.1% of 300,000 active. AID 1159583;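 active = 35 to 45% if threefold the growth effect, above 45% if 1.5-fold the growth effect; inactive = the rest, general growth blockers included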;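 note: wells of about 50 µL received 100 nL stock; 0% = vehicle wells and 100% = reference inhibitor wells; whole bacteria with a GFP reporter of the hypoxia response; strong numbers were not always called active; many hits fall short of the cut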
# ugtP null kill: compounds lethal to S. aureus RN4220 ugtP deletion mutant. OD600 growth, 16 h; some inactives read as strong as hits. growth inhibition, % (test concentration not listed). 0.54% of 330,000 active. AID 1259309;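 active = z-score under -3 and OD600 up to 0.15 on both plates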;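 note: plate controls were untreated wells for no effect and antibiotic for full effect; wells of about 80 µL received 100 nL stock; the first replicate is given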
# Mtb hypoxia inh growth: second read-out of Mtb hypoxia inh, no call of its own (marks repeat the call); growth inhibition, %; measured here: M. tuberculosis growth (absorbance);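 0% = vehicle and 100% = reference antibiotic; read after six days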
# * hit, by the source's call; . = not tested or not shown; & = joins results of further samples. The order is random. About 3.9% of those tested had a hit in this group.
compound	PrP 5UTR inh	Autofluor counter	BJeLR viability	RN4220 kill	Mtb hypoxia inh	Mtb hypoxia inh growth	ugtP null kill
COc1cc(/C=N/NC(=O)COc2ccc([N+](=O)[O-])cc2)ccc1OCC(=O)N1CCOCC1	-20.5	3110	-3.1	.	.	.	.
Fc1cccc(Cl)c1Cn1nnc(-c2ccc(N3CCOCC3)cc2)n1	-40.9	3796	1.5	0.9	1.1	6.1	-3.3
CCOc1ccc2[nH]c(=O)c(CN(Cc3nnnn3CCc3ccccc3)CC3CCCO3)cc2c1 (stereo not drawn)	-13.0	3080	1.0	3.1	.	.	9.6
COc1ccc(N/C(=N\c2nc(C)cc(C)n2)NC(=O)C(C)C)cc1OC	-11.6	3037	2.1	7.2	9.3	7.2	-2.3
CC1CCN(S(=O)(=O)c2ccc(Br)s2)CC1	-2.0	5667	-4.6	11.5	8.8	3.6	13.2
COc1ccc(CNC(=O)CSc2nnnn2Cc2ccccc2)cc1	-25.4	4653	3.1	0.6	.	.	6.4
COc1ccc(OC)c(Nc2nc(-c3cccs3)cs2)c1	-26.6	8940	15.3	-5.8	5.2	5.3	78.3
O=C(Nc1ccccc1)c1ccccc1OCc1cccc([N+](=O)[O-])c1	-16.6	2543	-6.7	1.6	-4.5	8.1	4.9
O=C(O)CCC(=O)N1CCN(c2nc3ccccc3s2)CC1	0.4	7076	3.3	1.3	.	.	2.6
COC(=O)CCCC1=CC2=C(c3ccccc3)C(=O)C(C)(OC(=O)C3CCCC3)C(=O)C2=CN1Cc1ccc2c(c1)OCO2 (stereo not drawn)	2.6	3219	-12.6	4.8	-6.0	4.7	-6.0
Cc1cc2oc3ccc(NCCCn4ccnc4)cc3c(=O)c2cc1C	-15.5	3946	5.4	-4.2	.	.	-6.8
COc1cc(/C=C/C(=O)N2CCOCC2)ccc1OCc1ccccc1	-14.4	2450	5.3	7.4	-1.5	3.9	-0.5
CCOC(=O)c1c(-c2ccccc2)csc1NC(=O)CCN1C(=O)c2ccccc2C1=O	-14.9	2263	-1.8	1.3	-4.1	-6.5	11.3
O=C(CN1CCCC1)Nc1ccc(Cl)cc1C(=O)c1ccccc1	-9.3	4897	-6.1	4.3	15.6	9.4	7.0
O=C(Nc1ccccc1)c1ccco1	-36.0	3870	9.2	4.2	3.5	-4.0	9.0
O=C(CCCN1C(=O)/C(=C/c2ccco2)SC1=S)Nc1ccccc1	-18.3	1926	-0.6	5.7	15.9	0.9	3.2
CN(CC(=O)Nc1cccc(F)c1)C(=O)CN1C(=O)NC2(CCCCC2)C1=O	-3.4	5616	5.4	-2.1	2.4	0.5	-0.4
CC(OC(=O)c1ccc(S(=O)(=O)N2CCOCC2)cc1)c1ccccc1 (stereo not drawn)	-10.2	5709	-1.1	-4.7	-4.5	-10.8	-2.3
Cc1ccc(S(=O)(=O)N2CCOCC2)cc1C(=O)Nc1c(C)n(C)n(-c2ccccc2)c1=O	-7.0	22630*	0.0	-1.6	7.1	7.1	0.4
COc1ccc([N+](=O)[O-])cc1NC(=O)CC(C)c1ccccc1 (stereo not drawn)	-9.8	4176	-4.0	1.4	3.5	6.7	1.6
COC(=O)C1=C(c2ccc3ccccc3c2)CC2CCC1N2C(=O)NCCCOC(C)C (stereo not drawn)	.	.	.	2.7	2.3	-0.9	-4.0
N#Cc1c(/N=C/c2cc(Br)cs2)sc2c1CCC2	-40.6	4069	-12.7	.	.	.	.
O=C(Nc1ccsc1C(=O)O)c1ccc(Cl)cc1	-18.9	3731	3.1	12.7	7.9	6.6	0.3
CC1CN(C(=O)Cn2cnc3c2c(=O)n(C)c(=O)n3C)CC(C)O1 (stereo not drawn)	-34.4	3811	-1.5	1.6	.	.	-2.6
COCCn1c(CN2CCN(c3ccc(OC)cc3)CC2)nc2c1c(=O)n(C)c(=O)n2C	-23.1	8087	4.9	2.5	14.5	7.0	-4.6
N#Cc1c(NC(=O)CCC(=O)O)sc2c1CCCC2	-19.2	2579	-3.4	5.7	4.2	3.6	-3.0
CCCC(=O)NC(Nc1cc(C(F)(F)F)ccc1Cl)C(Cl)(Cl)Cl (stereo not drawn)	-17.3	4373	-6.3	11.2	8.1	13.5	-20.8
COc1ccc(N2C(=O)CCC(C(=O)N3CCC(C(N)=O)CC3)C2c2ccc(F)cc2)cc1 (stereo not drawn)	-18.0	9974	-6.3	0.5	14.3	4.4	2.7
CCOc1ccc(NC(=O)CCC(=O)NNC(=O)NC2CCCCC2)cc1	10.0	6504	-4.2	-1.9	-10.1	2.4	-2.5
Cc1nnc(SCC(=O)Nc2cccc(S(=O)(=O)N(C)c3ccccc3)c2)s1	-10.5	2696	2.3	0.3	0.1	-2.4	-9.9

# The final 5 records of the part above lead into the next.
compound	PrP 5UTR inh	Autofluor counter	BJeLR viability	RN4220 kill	Mtb hypoxia inh	Mtb hypoxia inh growth	ugtP null kill
N#Cc1c(NC(=O)CCC(=O)O)sc2c1CCCC2	-19.2	2579	-3.4	5.7	4.2	3.6	-3.0
CCCC(=O)NC(Nc1cc(C(F)(F)F)ccc1Cl)C(Cl)(Cl)Cl (stereo not drawn)	-17.3	4373	-6.3	11.2	8.1	13.5	-20.8
COc1ccc(N2C(=O)CCC(C(=O)N3CCC(C(N)=O)CC3)C2c2ccc(F)cc2)cc1 (stereo not drawn)	-18.0	9974	-6.3	0.5	14.3	4.4	2.7
CCOc1ccc(NC(=O)CCC(=O)NNC(=O)NC2CCCCC2)cc1	10.0	6504	-4.2	-1.9	-10.1	2.4	-2.5
Cc1nnc(SCC(=O)Nc2cccc(S(=O)(=O)N(C)c3ccccc3)c2)s1	-10.5	2696	2.3	0.3	0.1	-2.4	-9.9
O=[N+]([O-])c1cccc(C2N3CCCN23)c1 (stereo not drawn)	-35.2	2245	-4.8	2.5	-0.3	-3.7	12.3
Cc1c(C(=O)NCc2cccnc2)sc2nc(-c3ccccc3)cn12	-18.4	5156	-14.5	4.5	5.6	4.5	-2.8
Cc1ccc2oc(C(=O)NCc3ccccc3)cc(=O)c2c1	-23.5	3331	2.1	2.6	-4.7	-2.0	0.8
COc1ccc(/C=C/C(=O)O/N=C(\N)c2ccccn2)cc1OC	-63.3	4630	.	6.8	7.1	3.4	3.0
O=C(Nc1c[nH]c(=O)[nH]c1=O)c1ccc2c(c1)C(=O)N(c1cccc([N+](=O)[O-])c1)C2=O	2.2	5147	6.5	4.2	16.4	3.1	7.0
Cc1sc2nc(SCC(=O)c3cc(C)n(CC4CCCO4)c3C)n(C(C)C)c(=O)c2c1C (stereo not drawn)	-13.4	3993	-1.6	4.2	4.2	12.0	-20.4
CCCc1nc2ccc(Br)cc2c(=O)n1-c1ccc([N+](=O)[O-])c(C(F)(F)F)c1	-20.9	2611	7.4	21.2	-0.4	0.9	-11.7
O=C(c1cc2ccccc2o1)N1CCN(Cc2ccccc2)CC1	-15.0	5731	12.4	5.6	.	.	4.2
CC(C)c1ccccc1NC(=O)CNCCc1ccc(C(F)(F)F)cc1	-20.5	3259	2.4	13.6	9.5	4.5	-2.7
N#Cc1c(-c2ccccc2)nc2n(-c3ccccc3)nc(C(=O)Nc3ccccc3)n2c1=O	-9.5	3205	-2.0	11.8	.	.	-0.2
C=CCn1c(SCc2nc3c(c(=O)[nH]c(=O)n3CCCC)n2CCC)nnc1-c1ccccc1	-0.7	2980	1.3	0.7	11.3	10.5	0.0
O=C1Nc2cc(C(=O)NCCCN3CCOCC3)ccc2S/C1=C/c1cccc(Cl)c1	16.6	5954	-5.7	1.8	2.2	11.3	-14.5
CN(C)c1ccc(CN(CC2CCCO2)C(=O)c2cc3ccccc3o2)cc1 (stereo not drawn)	-27.1	4175	.	0.0	3.1	0.0	4.3
COCCCn1c(C(=O)N2CC(C)OC(C)C2)cc2c(=O)n3cccc(C)c3nc21 (stereo not drawn)	5.7	5385	-6.5	-2.2	-17.0	7.1	-1.7
COc1ccc(NC(=O)N/C=C/c2ccccc2)cc1	-63.4	4724	2.5	2.1	2.9	-14.8	-1.7
C/C(=N\NC(=O)c1cc(-c2ccc(Cl)s2)[nH]n1)c1ccncc1	4.5	5897	-5.4	.	.	.	.
CCCCOc1ccc(CN(C)c2ncnc(N)n2)cc1	-34.2	22920*	2.6	6.4	1.1	6.0	34.5
O=C(CC1C(=O)NCCN1Cc1ccccc1C(F)(F)F)NCCN1CCOCC1 (stereo not drawn)	-18.6	6165	-1.9	1.8	7.0	9.0	8.2
O=C(O)C1CCCN1S(=O)(=O)c1cccc2cccnc12 (stereo not drawn)	.	.	.	2.7&4.2	6.4&5.8	9.4&11.6	3.6&1.0
O=C(CSc1nc2ccccc2[nH]1)Nc1ccc(F)cc1	-12.9	5475	-2.6	5.4	8.0	7.1	2.2
COc1ccc(C(=O)/C(=C\c2sccc2C)c2nc3ccccc3o2)cc1	.	.	-0.1	1.2	9.5	1.3	3.4
C=CC(=O)NC(NC(=O)C=C)c1ccccc1F	-8.2	4805	3.5	1.5	8.8	0.2	8.7
COc1ccccc1N1CCN(C(=O)c2cccc(Oc3ccccc3)c2)CC1	-21.1	4186	4.0	2.0	6.8	-2.0	2.1
Cc1[nH]c2ccc(-c3nnc(SCC(=O)N4CCCc5ccccc54)o3)cc2c1C	-28.0	10388	20.3	1.0	1.8	9.8	10.3
CC1(C)Cc2c(sc(NC(=O)C(=O)N3CCCC3)c2C(N)=O)CO1	-17.6	5652	10.9	4.6	16.2	2.9	5.3
COc1cccc(NC(=O)c2ccnc(N3CCC(C(=O)NCc4ccccc4OC)CC3)c2)c1	-28.2	6070	5.4	-3.0	5.7	2.0	11.5
CCc1ccc(NC(=O)c2ccc(F)c(S(=O)(=O)NCC3COc4ccccc4O3)c2)cc1 (stereo not drawn)	-16.6	2032	-0.9	-6.6	5.1	6.3	5.8
CCCCn1c(N)c(-c2nc3ccccc3s2)c2c([N+](=O)[O-])nn(C)c(=O)c21	11.5	10671	0.3	1.2	7.8	12.1	-38.5
O=C(/C=C/c1cccc([N+](=O)[O-])c1)c1cccs1	-18.9	2729	5.3	11.5	.	.	9.2
CCN(CC)Cc1c(O)ccc2c(=O)c(-c3ccc4c(c3)OCCO4)coc12	4.4	3520	-2.9	22.6	2.1	1.4	6.9
Cc1c(NS(C)(=O)=O)c(=O)n(-c2ccccc2)n1C	-26.7	3673	-0.5	7.7	.	.	5.3
Cc1ccc(S(=O)(=O)N(Cc2cccc([N+](=O)[O-])c2)C(=O)N2CCN(C)CC2)cc1	-9.6	4656	-0.9	2.8	-1.0	0.5	2.4
CCNC(=O)NC(=O)COC(=O)CCc1nc(=O)c2ccccc2n1C	-13.9	2129	7.2	5.6	1.8	-0.6	3.3
CCOC(=O)Cc1csc(NC(=O)c2ccc3c(c2)OCO3)n1	-24.7	9412	0.6	3.9	6.2	9.9	3.6
COc1ccc(N(CC(O)CN2CCCCC2)S(=O)(=O)c2ccc(C)cc2)cc1 (stereo not drawn)	-9.9	20804*	-1.9	2.7	0.4	15.1	-2.7
CC(C)(C)n1ncc2c(=O)n(CC(=O)N3CCc4ccccc43)cnc21	-15.1	3262	-5.6	1.7	8.4	9.9	-0.4
CC(=NN1CCN(Cc2ccc(Cl)cc2)CC1)c1ccc(F)cc1	.	.	.	2.4	-1.0	-2.5	6.1
COc1cc(C)c(CNCCc2c[nH]c3ccccc23)cc1C	-0.6	3854	2.7	-1.4	-11.2	6.6	-14.6
CCCCC(=O)Nc1cc(OC)c(NC(=S)Nc2ccc(OC)cc2)cc1OC	-2.4	3078	.	2.3	12.0	7.0	6.5
Fc1ccccc1CSc1nc2ncc(Br)cc2[nH]1	-34.3	2757	-4.9	1.2	.	.	-10.1
N#Cc1ccc(-c2ccc(F)cc2)nc1Oc1ccc(F)cc1	13.6	21827*	-10.3	-1.3	-7.4	8.6	-10.3
Cc1ccc(Cl)cc1NC(=O)COC(=O)CSc1ccccc1	-27.8	3783	.	2.8	3.6	3.8	-1.2
O=C(Nc1ccc(C(=O)N2CCCC2)cc1)c1cccc(C(F)(F)F)c1	-28.8	4388	2.7	-0.5	3.3	-0.5	2.8
